Neddyl block – inhibitors of cullin neddylation, primary screen, biochemical, TR-FRET, uHTS, NAE and Ubc12; NEDD8-conjugating enzyme Ubc12 (Homo sapiens) + NEDD8-activating enzyme E1 regulatory …; calls only at 25 µM; actives 0.58% (n = 360,000); in the data active means inhibition above about 36%
PABP1 MLLE inh – inhibitors of PABP1 MLLE–PAM2 peptide binding, primary screen, biochemical, fluorescence polarization, FITC-PAM2, GST-MLLE; inhibition, % at 20 µM; actives 0.36% (n = 360,000); in the data active means inhibition above about 35%, passing the limit was not always enough;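 further: plate controls were DMSO wells with GST-MLLE for no effect and wells lacking GST-MLLE protein for full effect; some results filed as inactive read as strong as hits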
FAS-TE inh – FAS thioesterase domain inhibitors, primary screen, biochemical, fluorescence intensity, uHTS. actives 0.67% (n = 360,000). recombinant FAS-TE, OMFH fluorogenic substrate, fluorescence endpoint. inhibition, % at 15 µM;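 active means compounds whose normalised, plate-corrected inhibition of enzyme fluorescence in the single-dose primary screen is 50% or more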;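 further: 0% = DMSO with enzyme and 100% = substrate without enzyme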
eLon inh – inhibitors of E. coli Lon protease, primary screen, biochemical, fluorescence polarization. purified E. coli Lon protease. inhibition, % at 7.94 µM. actives 0.42% (n = 360,000); in the data active means inhibition above about 13%, passing the limit was not always enough;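 further: 0% = enzyme with probe and DMSO and 100% = no enzyme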
CSN deneddyl inh – inhibitors of CSN-mediated cullin deneddylation, primary screen, biochemical, fluorescence polarization, uHTS; actives 0.38% (n = 360,000); Purified CSN, SCF-Nedd8-OG deneddylation; COP9 signalosome complex subunit 5 (Homo sapiens), Q92905; inhibition, % at 12.5 µM;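 active means pattern-corrected inhibition above about 35%, with an unprinted fluorescence ratio check between 0.5 and 1.5, limit read from the data, passing the limit was not always enough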;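 further: 0% = enzyme with substrate and 100% = substrate without enzyme; some results filed as inactive read as strong as hits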
Target sequence (Q92905 whole entry, looked up, one chain of several): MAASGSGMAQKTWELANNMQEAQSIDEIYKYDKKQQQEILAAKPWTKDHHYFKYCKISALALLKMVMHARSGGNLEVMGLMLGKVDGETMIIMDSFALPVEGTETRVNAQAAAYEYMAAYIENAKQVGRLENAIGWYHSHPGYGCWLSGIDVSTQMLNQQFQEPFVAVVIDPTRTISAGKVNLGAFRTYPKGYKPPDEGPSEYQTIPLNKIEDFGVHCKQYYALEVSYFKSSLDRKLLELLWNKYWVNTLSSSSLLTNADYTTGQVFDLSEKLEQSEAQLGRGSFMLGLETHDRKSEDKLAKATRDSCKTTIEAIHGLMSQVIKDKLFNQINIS
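assay system = purified human Csn5 enzyme expressed in HEK293T cells | amount = 0.24 nM enzyme | buffer or medium = Tris/NaCl/DTT buffer, pH 7.5 | reagent = 10 nM SCFSkp2-Nedd8OG | compound = one concentration, 12.5 µM, 0.25% DMSO | times = 90 min reaction at room temperature | signal = FP | read-out basis = % inhibition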
Active calls of the source: *; i = inactive; . = not tested or not shown; + = active, no number.

Start of the data: the first 3 compounds, ahead of the listing:
item	Structure	FAS-TE inh	PABP1 MLLE inh	CSN deneddyl inh
1	O=C(O)c1cc(S(=O)(=O)N2CC=C(c3ccccc3)CC2)ccc1O	4	-3	-7
2	CN([C@@H](Cc1ccc(OS(=O)(=O)c2cccc3cnccc23)cc1)C(=O)N1CCN(c2ccccc2)CC1)S(=O)(=O)c1cccc2cnccc12	38	-12	-1
3	NC1C2CN(c3nc4c(cc3F)c(=O)c(C(=O)O)cn4-c3ccc(F)cc3F)CC12 (stereo not drawn)	-3	-6	0

item	Neddyl block	eLon inh
1	i	-7
2	i	-13
3	i	0

The listing, from the first entry:
item	Structure	FAS-TE inh	PABP1 MLLE inh	CSN deneddyl inh
1	O=C(O)c1cc(S(=O)(=O)N2CC=C(c3ccccc3)CC2)ccc1O	4	-3	-7
2	CN([C@@H](Cc1ccc(OS(=O)(=O)c2cccc3cnccc23)cc1)C(=O)N1CCN(c2ccccc2)CC1)S(=O)(=O)c1cccc2cnccc12	38	-12	-1
3	NC1C2CN(c3nc4c(cc3F)c(=O)c(C(=O)O)cn4-c3ccc(F)cc3F)CC12 (stereo not drawn)	-3	-6	0
4	COc1ccc(NC(=O)CN(C)C(=O)Cc2ccc(S(=O)(=O)N3CCOCC3)s2)cc1	-3	-16	-3
5	CCN(Cc1ccncc1)C(=O)C(CO)c1ccccc1 (stereo not drawn)	-10	6	-3
6	CN(C)CCCN1c2ccccc2CCc2ccc(Cl)cc21	-8	12	-1
7	CSc1ccc2c(c1)N(CCC1CCCCN1C)c1ccccc1S2 (stereo not drawn)	4	-3	0
8	CCN1CCN(C(=O)c2ccc(NS(=O)(=O)c3ccccc3)cc2)CC1	-10	5	-5
9	Cc1nc2ccccc2c(-c2ccccc2)c1CC(=O)O	-3	2	-11
10	N#C/C(=C\c1ccc(O)c(O)c1)C(=O)NCc1ccccc1	2	-31	-1
11	CCC(=C(c1ccccc1)c1ccc(OCCN(C)C)cc1)c1ccccc1	-4	4	0
12	CCN(CC(=O)Nc1ccc(NC(C)=O)cc1)C(=O)c1ccccc1SCc1c(C)noc1C	-6	5	5

item	Neddyl block	eLon inh
1	i	-7
2	i	-13
3	i	0
4	i	-13
5	i	-7
6	i	1
7	i	0
8	i	-8
9	i	-4
10	i	-8
11	i	0
12	i	-3

Single entries from the list:
In FAS-TE inh, `CCN1CCN(C(=O)c2ccc(NS(=O)(=O)c3ccccc3)cc2)CC1` reads -10
In eLon inh, `CCN(Cc1ccncc1)C(=O)C(CO)c1ccccc1` (stereo not drawn) reads -7
In PABP1 MLLE inh, `CCC(=C(c1ccccc1)c1ccc(OCCN(C)C)cc1)c1ccccc1` reads 4
In eLon inh, `NC1C2CN(c3nc4c(cc3F)c(=O)c(C(=O)O)cn4-c3ccc(F)cc3F)CC12` (stereo not drawn) reads 0

Next records
item	Structure	FAS-TE inh	PABP1 MLLE inh	CSN deneddyl inh
13	Cc1cc2ncc(-c3ccccc3)nc2cc1C	12	-7	-2
14	O=c1n(CCCN2CCN(c3cccc(Cl)c3)CC2)nc2ccccn12	-3	6	-2
15	C=C(CN(C)C)C(=O)c1cc(OC)c(OC)cc1OC	-4	19	-1
16	Nc1ncnc2c1ncn2[C@@H]1O[C@H](COP(=O)(O)OP(=O)(O)OP(=O)(O)O)[C@@H](O)[C@H]1O	-1	-11	-5
17	N#Cc1c(-c2ccc(Cl)cc2)c(-c2ccc(Cl)cc2)nn(CCO)c1=O	13	1	0
18	CCN1/C(=C/C(C)=O)Sc2ccc(OC)cc21	-7	38	5
19	COc1ccc(CCN2CCC(Nc3nc4ccccc4n3Cc3ccc(F)cc3)CC2)cc1	4	-4	-1
20	Clc1ccccc1C(c1ccccc1)(c1ccccc1)n1ccnc1	22	-7	3
21	O=Nc1c(-c2c(O)[nH]c3cc(Br)ccc23)[nH]c2ccccc12	-129	-37	-2
22	CCCC(=O)c1ccc(O)cc1O	-6	11	3
23	CCC(C)(C)C(=O)O[C@H]1C[C@@H](C)C=C2C=C[C@H](C)[C@H](CC[C@@H]3C[C@@H](O)CC(=O)O3)[C@H]21	43	-9	-5
24	CC(C)N(CCC(=O)c1ccc2ccccc2c1)Cc1ccccc1	13	31	3

item	Neddyl block	eLon inh
13	i	7
14	.	0
15	.	4
16	+	22
17	i	1
18	i	-2
19	i	-5
20	i	2
21	i	13
22	i	5
23	i	-11
24	i	-6

Filtered by structure, the compounds so far containing a carbonyl joined to an NH by a bond outside any ring.
item	Structure	FAS-TE inh	PABP1 MLLE inh	CSN deneddyl inh
4	COc1ccc(NC(=O)CN(C)C(=O)Cc2ccc(S(=O)(=O)N3CCOCC3)s2)cc1	-3	-16	-3
10	N#C/C(=C\c1ccc(O)c(O)c1)C(=O)NCc1ccccc1	2	-31	-1
12	CCN(CC(=O)Nc1ccc(NC(C)=O)cc1)C(=O)c1ccccc1SCc1c(C)noc1C	-6	5	5

item	Neddyl block	eLon inh
4	i	-13
10	i	-8
12	i	-3

These rows are one share of the data (hit frequency here may not be typical).
